Assay outcomes deposited in PubChem BioAssay by National Center for Advancing Translational Sciences (NCATS).
HSD17B inh: blocks hydroxysteroid 17-beta dehydrogenase activity; Q99714; recombinant HSD17B10, NADH fluorescence kinetic; many of its hits are not listed in these tables; Potency, µM (titrated, usually from 57.1 µM), inactives show at the highest dose activity change, negative = inhibition, hits mostly inhibitors; 7.6% of 75,000 active; AID 893; active means well fitted inhibition curve with a large enough effect; inconclusive means small, poorly fitted or top-dose-only effect; inactive means no such curve, though single readings can be large or run the other way;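 further: the protocol describes HADH2 (HSD17B10) and not the HSD17B4 of the title; nearly all actives have a fitted effect of over 70% in size; most hits overshoot -100% by far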
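His-tagged E. coli-expressed HADH2 at 20 nM in 100 mM Tris-HCl pH 9.0 with 0.01 % Tween-20, preincubated 15 min with compound at room temperature. Reaction with 1 mM NAD+ and 90 uM beta-hydroxybutyryl coenzyme A; NADH fluorescence (360/450 nm) read kinetically over 4 min, last minus first point.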
* marks the source's active call; other numbers are inactive results; ? = inconclusive; [ ] = dose if it differs, or a comment. On the % scale 0 is the no-effect control and ±100 the full control effect; potency means the concentration at half of the fitted maximal effect.

SMILES	HSD17B inh
Cc1ccnc(NS(=O)(=O)c2ccc(NC(=O)Cc3cccs3)cc2)n1	?
COc1ccc2[nH]c(=O)c(CN(C(=O)COc3ccccc3)C(C)C)cc2c1	32µM*
CCCC(=O)Nc1ccccc1N1CCN(C(=O)c2ccccc2)CC1	8%
COc1ccc2c(=O)c(-c3ccccc3)coc2c1	-9%
Cc1onc(-c2c(Cl)cccc2Cl)c1C(=O)N1CCc2ccccc21	-4%
CC(C)[C@@H](OCc1ccccc1)[C@H](C)/C=N\OC[C@@H](O)COCc1ccco1	-4%[11.4 µM]
COc1ccccc1N(CC(=O)Nc1ccccc1C(=O)NC(C)C)S(C)(=O)=O	-28%
CCOC(=O)c1ccccc1NC(=O)CSc1nccn1C	-7%
Cc1cc(Nc2ccccc2F)n2ncnc2n1	4%
O=C(CSc1ncnc2ccccc12)NCc1ccco1	-1%

(list continues)
SMILES	HSD17B inh
Cc1ccc(C(=O)Nc2ncc3c(n2)CC(c2ccco2)CC3=O)cc1 (centres undefined)	-6%
Cc1ccccc1NC(=O)c1nc[nH]c1C(=O)NCc1ccccc1	279%[activator]
NS(=O)(=O)c1ccc(NC(=O)Nc2ccccc2F)cc1	5%[11.4 µM]
CS(=O)(=O)N1CCc2cc(S(=O)(=O)N3CCN(Cc4ccc5c(c4)OCO5)CC3)ccc21	8%
CCCCOC(=O)CSc1nc2c(cc1C#N)C(=O)CC(C)(C)C2	-5%
COCc1c(C(=O)OCC(=O)N2c3ccccc3CC2C)oc2ccccc12 (centres undefined)	-5%
COC(=O)CN(c1ccccc1OC)S(=O)(=O)c1ccccc1	-1%
CC(C)CNC(=O)c1cccc(NC(=O)C2CCCO2)c1 (centres undefined)	1%
COc1ccc(Nc2cc(C(=O)NCCCN3CCN(C)CC3)c3ccccc3n2)cc1OC	3%
CC(C(=O)N(C1CC1)C1(C(=O)Nc2ccccc2)CCCC1)N1C(=O)c2ccccc2C1=O (centres undefined)	0%

(next part)
SMILES	HSD17B inh
COc1ccc(Nc2oc(COc3cccc(C)c3)nc2C#N)cc1	-21%
O=C1C2CCC(C(O)C2)N1Cc1ccccc1 (centres undefined)	1%
COc1ccc(NC(=O)c2ccco2)cc1NC(=O)c1cccnc1	8%
Cn1cccc1C(=O)N1CCC2(CCCN(c3ccc(-c4ccccc4)cc3)C2)CC1	-22%
CCOC(=O)C1CCN(c2c(N3CCCCCC3)c(=O)c2=O)CC1	-3%
CC(C)NC(=O)Cn1nnc(-c2cccc(NC(=O)c3ccccc3F)c2)n1	25µM*
O=C(NCCCN1CCN(c2cccc(Cl)c2)CC1)c1nc(-c2ccncc2)no1	3%
CCOc1cccc(N2C(=O)CC(N3CCC(C(N)=O)(N4CCCCC4)CC3)C2=O)c1 (centres undefined)	-7%
CC(C)(C)NC(=O)c1ccccc1-c1nc(-c2ccccc2Cl)no1	2%
Cc1nc(-c2ccc(NC(=O)c3cccs3)cc2)cs1	25µM*

Going on with the list.
SMILES	HSD17B inh
Cc1cc(/C(=N/O)C(C)(C)NO)ccc1Cl	-1%
O=C(CN(c1ccc(F)cc1)S(=O)(=O)c1ccc2c(c1)OCCO2)N1CCOCC1	6%
O=C(CSc1nc2c(c(=O)[nH]1)CCC2)Nc1cccc(Cl)c1	-6%
CCc1ccccc1N1CCN(S(=O)(=O)c2ccc(F)c(C)c2)CC1	6%
COc1cccc2cc(-c3cn4cccc(C)c4n3)c(=O)oc12	-3%
CSc1c[n+]2c(n1C)CCC2	?
Cc1ccc(-n2c(C)cc(C(=O)COC(=O)c3c(C)noc3C)c2C)cc1	7%
FC(F)(F)c1cccc(-c2noc(-c3cc(-c4ccccc4)c(C(F)(F)F)s3)n2)c1	-9%
O=C(O)[C@H]([C@H]1NCCS1)N1Cc2ccccc2C1	12%[11.4 µM]
COC1=CC(=O)C(C(=O)c2ccccc2)=CC1=O	13µM*

Next part
SMILES	HSD17B inh
CCCC(=O)Nc1cc(OC)c(OC)cc1C(=O)O	1%
CSc1snc(SCC(N)=O)c1C#N	3%
Cc1ccc(N2CCN(S(=O)(=O)c3ccc(F)c(C)c3)CC2)c(C)c1	13%
CCOC(=O)C1C2C=CC3(CN(Cc4cccs4)C(=O)C13)O2 (centres undefined)	-2%
O=Cc1c(Cl)cccc1Cl	-2%
CSCC[C@H](NC(=O)Nc1cccc(C(F)(F)F)c1)C(=O)O	9%
COC(=O)NCc1ccc(S(=O)(=O)N2CCOCC2)cc1	9%
COC(=O)COc1ccc(S(=O)(=O)NC2CCCCCC2)cc1	3%
CCOCCOC(=O)CCSc1n[nH]c(=O)[nH]c1=O	2%
CC1=C(/C=C/C(C)=C/C=C/C(C)=C\C=O)C(C)(C)CCC1	0%

Of the compounds above, these contain a Cl atom.
SMILES	HSD17B inh
Cc1onc(-c2c(Cl)cccc2Cl)c1C(=O)N1CCc2ccccc21	-4%
O=C(NCCCN1CCN(c2cccc(Cl)c2)CC1)c1nc(-c2ccncc2)no1	3%
CC(C)(C)NC(=O)c1ccccc1-c1nc(-c2ccccc2Cl)no1	2%
Cc1cc(/C(=N/O)C(C)(C)NO)ccc1Cl	-1%
O=C(CSc1nc2c(c(=O)[nH]1)CCC2)Nc1cccc(Cl)c1	-6%
O=Cc1c(Cl)cccc1Cl	-2%

More entries.
smiles,HSD17B inh
CN(CCOc1ccc(C[C@H](Nc2ccccc2C(=O)c2ccccc2)C(=O)O)cc1)c1ccccn1,25µM*
COc1ccc(OC)c2sc(NC(=O)C3CC3)nc12,?
CNC(=O)CN1C(=O)C2C3C=CC(C3)C2C1=O (centres undefined),14%
Cc1ccc(-c2cc(C(=O)NC3=NCCS3)c3cc(Br)ccc3n2)o1,25µM*
COc1ccc(-n2nnc3c(=O)n(CC(=O)OCc4ccccc4)cnc32)cc1,1%
CCOC(=O)C1C(=O)C(C(=O)OCC)C(c2cccnc2)NC1c1cccnc1 (centres undefined),-4%
COc1ccc(C(=O)NCc2ccccc2OC)cc1,-8%
CCc1nc2ccccc2n1CCC(C)C,4%

Following part.
smiles,HSD17B inh
Cc1ccccc1Cn1c(CN2CCN(C(=O)c3ccco3)CC2)nc2c1c(=O)n(C)c(=O)n2C,-22%
CCCSc1nsc(SCCC)c1C(N)=O,-6%
C=CCc1cc(C)ccc1OCC(O)CN1CCN(c2ccccc2)CC1 (centres undefined),-3%
Cc1ccc(-c2nnc3n2N=C(c2ccccc2Br)CS3)cc1,-9%
CCn1c(SCC(=O)Nc2nc(C)cs2)nnc1-c1cccnc1,8%
CCOC(=O)NC(Nc1nnc(C)s1)(C(=O)OCC)C(F)(F)F (centres undefined),4%
COc1cc(C(=O)NCCC2=CCCCC2)cc(OC)c1OC,15%
CC(C)c1nnc(NC(=O)c2ccc(N3C(=O)CCC3=O)cc2)s1,1%

A draw from above in order of number of heavy atoms, ascending:
smiles,HSD17B inh
Cc1nc(-c2ccc(NC(=O)c3cccs3)cc2)cs1,25µM*
CCOC(=O)C1C2C=CC3(CN(Cc4cccs4)C(=O)C13)O2 (centres undefined),-2%
COc1cc(C(=O)NCCC2=CCCCC2)cc(OC)c1OC,15%
CCOC(=O)C1CCN(c2c(N3CCCCCC3)c(=O)c2=O)CC1,-3%
COc1ccc(-n2nnc3c(=O)n(CC(=O)OCc4ccccc4)cnc32)cc1,1%

Carrying on:
smiles,HSD17B inh
COc1ccc(C2(C(=O)N3CCOCC3)CCOCC2)cc1OC,10%
CCOC(=O)c1cccc(NC(=O)C2CCCN(S(=O)(=O)c3c(C)n[nH]c3C)C2)c1 (centres undefined),-8%
Cn1c(NC(=O)c2cccnc2)nc2ccccc21,-6%
COc1cccc(C2CC(c3ccccc3Cl)n3nnnc3N2)c1 (centres undefined),-3%
CCOC(=O)N1CCN(C(=O)CNC(=O)Cc2ccc(Cl)cc2)CC1,9%
Cn1cnnc1-c1cccc(NS(=O)(=O)c2ccc(N3CCCC3=O)cc2)c1,2%
Cc1nnc(NC(=O)CSc2nnc(CCc3nc4ccccc4[nH]3)n2C)s1,2%
CCOc1ccc(C(=O)NCC2CCCO2)cc1 (centres undefined),-3%

Next section.
smiles,HSD17B inh
O=C(CSc1nc(O)c(C2CCCCC2)c(=O)[nH]1)NCC1CCCO1 (centres undefined),10%
Cc1cccc(CNc2nc(-c3cccc(NS(C)(=O)=O)c3)nc3ccccc23)c1,-28%
CCOC(=O)c1c(N)sc2c(O)c(Br)ccc12,-10%
Cc1cc(Nc2nc3c(c(=O)n(C)c(=O)n3C)n2C)n(-c2ccc(Cl)cc2)n1,-6%
Cc1ccc(NC(=O)C2C3C=CC4(CN(Cc5cccnc5)C(=O)C24)O3)cc1 (centres undefined),4%
c1ccc(N2CCN(c3nc4ccccc4n4nnnc34)CC2)cc1,?
CCc1ccc(N2CC(C(=O)Nc3nccs3)CC2=O)cc1 (centres undefined),-2%
Cn1c(SCC(=O)c2ccc3c(c2)OCO3)nnc1C1COc2ccccc2O1 (centres undefined),-9%

Later entries:
smiles,HSD17B inh
Cc1csc(NC(=O)Nc2ccc(Cl)cc2)n1,-3%
O=C1CCC(=O)N1CNc1cccnc1,8%
Cc1cc(C)nc(/N=C/c2c(O)n(C)c(=O)n(C)c2=O)n1,7%
COc1ccc(OC)c(-c2nnc(SCC(=O)N3CCOCC3)o2)c1,-13%
COc1ccc(NC(=O)C2c3cc(OC)c(OC)cc3C(=O)N(C)C2c2cccnc2)cc1OC (centres undefined),-3%
Cc1nn(-c2ccccc2)c2sc(C(=O)N(CC(=O)NC3CCCC3)Cc3ccco3)cc12,?
CCN1C(=O)C(CC(=O)NC2CCCCC2)N(CC)C1=O (centres undefined),-19%
O=C(CCSc1nc(-c2ccc3c(c2)OCO3)cc(C(F)(F)F)n1)NCc1ccco1,25µM*

More results follow:
smiles,HSD17B inh
CCOC(=O)NCc1ccc(S(=O)(=O)Nc2ccccc2C)cc1,0%
CC(O)CNc1nc2c(c(=O)n(C)c(=O)n2C)n1C/C=C/c1ccccc1 (centres undefined),4%
Cc1cc(C(=O)OCC(=O)NC2CCS(=O)(=O)C2)c(C)n1-c1ccccc1 (centres undefined),-2%
NC(=O)c1ccc(-n2nnnc2SCc2ccccc2)cc1,4%
COC(=O)C1=C(CSc2nncn2C)NC(=O)NC1c1cc(C)ccc1C (centres undefined),?
CCC(C)OC(=O)c1[nH]c2c(c1C)C(=O)CC(c1ccc(N(C)C)cc1)C2 (centres undefined),-3%
O=S(=O)(NCCc1cn2ccccc2n1)c1cccs1,-7%
Cc1cc2oc(C(=O)N(Cc3ccco3)C3CCS(=O)(=O)C3)cc(=O)c2cc1Cl (centres undefined),1%

(listing goes on)
smiles,HSD17B inh
COc1cccc(N2CCN(C(=O)c3ccc(N4C(=O)NC5CC4(C)Oc4ccccc45)cc3)CC2)c1 (centres undefined),4%
CCOc1ccc(/C(O)=C2/C(=O)C(=O)N(CCCn3ccnc3)C2c2cccs2)cc1Cl (centres undefined),-1%
COc1ccc(OC)c(NC(=O)CN2CCN(C(=O)c3ccco3)CC2)c1,6%
C=CCn1c(SCn2nnc3ccccc3c2=O)nnc1-c1ccc(Cl)cc1,8%
CCc1cc2c(nc1CC)CCN(CC/C(C)=N/OC[C@@H](O)[C@@H]1O[C@@H]3OC(C)(C)O[C@@H]3[C@H]1O)C2,-1%[11.4 µM]
O=C1N=c2ccccc2=C1c1sc(=S)n(CC2CCCO2)c1O (centres undefined),5%
COc1cc(OC)c(NC(=O)CS(=O)(=O)Cc2nc(-c3ccc(C)cc3)oc2C)cc1Cl,1%
Cc1cc(C)n2c(SCC(=O)Nc3cc(C)on3)nnc2n1,?

Next section.
smiles,HSD17B inh
CC(C)NS(=O)(=O)c1ccc(OCC(=O)Nc2ccc3c(c2)OCO3)c(Cl)c1,-15%
O=C(NC(Cc1ccccc1)C(=O)N1CCN(c2ccccn2)CC1)c1ccco1 (centres undefined),32µM*
Nc1nc(COc2ccc3ccccc3c2)cs1,3%
Cc1cnc(CNc2cc(-c3ccc(N(C)C)cc3)ncn2)cn1,25µM*
COc1ccc(S(=O)(=O)N2CCC(C(=O)Nc3nnc(CCN4CCCCC4)s3)CC2)cc1,12%
COCCNS(=O)(=O)c1cccc2cccnc12,6%
CCC(c1nnnn1C1CCCCC1)N1CCN(C2CCCC2)CC1 (centres undefined),2%
CCN(CC)S(=O)(=O)C1CCS(=O)(=O)C1 (centres undefined),5%

(continued)
smiles,HSD17B inh
COc1cc(C(=O)NCCc2nc3ccccc3n2C)cc(OC)c1OC,6%
O=C(NCc1ccc2c(c1)OCO2)c1cc2c(s1)CSC2,-10%
Cn1c(=O)n(-c2ccccc2)c(=O)c2c3c(sc21)COC(C)(C)C3,8%
O=C(NCCCNC(=O)NC1CCCCC1)NC1CCCCC1,4%
CCCC(=O)c1cc(F)c(N2CCN(C(=O)OCC)CC2)cc1C,4%
CC(=O)NC1CC2CCCC(C1)N2CC(=O)Nc1ccccc1 (centres undefined),14%
CCOc1ccc(S(=O)(=O)N(CC(=O)O)c2ccccc2)cc1,2%
O=C(NCCN1CCN(Cc2ccccc2)CC1)C1CC(=O)N(C2CCCC2)C1 (centres undefined),3%

Following part:
smiles,HSD17B inh
O=C(NCc1cccnc1)c1cn(-c2ccccc2)nc1-c1cccs1,-29%
COc1ccc(NC(=O)c2c(F)c(F)c(F)c(F)c2F)cc1Cl,-7%
Cc1ccc(NCCNc2ccc(C)cc2)cc1,-1%
O=C(CCn1c(=O)oc2ccccc21)N1CCN(c2ccccc2Cl)CC1,10%

Some of the compounds tested. The share of hits here may be higher or lower than overall.
